# Autofluor counter: compound fluorescence in toxin protease inhibitor counterscreen | compound autofluorescence counterscreen, microsphere flow cytometry; stronger effect = higher value | 360,000 tested, 3.1% active | AID 624483 | fluorescence intensity (no concentration beside the values);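 active means at least 3 SD above the mean of all compounds, about 16000 in these data; inconclusive means too few beads counted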;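 further: 100 nL of 1 mM stock went into each well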
# RN4220 kill: S. aureus RN4220 growth inhibition. AID 1259311. 330,000 tested, 0.33% active. inhibition, % (test concentration not listed). OD600, 16 h;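 active means z-score of -3 or lower and OD600 up to 0.18 on both plates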;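 further: plate controls were untreated cells for no effect and reference antibiotic for full effect; stock transfer was 100 nL into about 80 µL; one replicate is shown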
# Mtb hypoxia inh: inhibitors of hypoxia-regulated fluorescent reporter in Mycobacterium tuberculosis; M. tuberculosis hypoxia-regulated fluorescent reporter, fluorescence; fluorescence inhibition, % (concentration not given with the values); 300,000 tested, 0.1% active; AID 1159583;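 active means 35 to 45% if threefold the growth effect, above 45% if 1.5-fold the growth effect; inactive means the rest, general growth blockers included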;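 further: wells of about 50 µL received 100 nL stock; 0% = vehicle wells and 100% = reference inhibitor wells; whole bacteria with a GFP reporter of the hypoxia response; strong numbers were not always called active; many hits fall short of the cut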
# BJeLR viability: BJeLR cell viability loss. AID 1554. inhibition, % (concentration not given with the values). BJeLR (HRASV12) viability, CellTiter-Glo ATP luminescence, 48 h; reference of the scale not given here. 300,000 tested, 0.17% active;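 active means replicate mean above 50%; inconclusive means above 50% but judged a plate artefact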;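 further: 50 nL library stock added to about 25 µL; numbers are from one replicate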
# PrP 5UTR inh: suppresses PrP 5' UTR mRNA reporter expression; cell-based PrP 5' UTR mRNA reporter, plate reader; inhibition, % (no concentration beside the values); 340,000 tested, 0.35% active;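 active means every replicate at 50% or more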;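 further: 0 = median of the neutral control wells; tested in H4 reporter cells; numbers are from one replicate; inactives centre near -14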
# ugtP null kill: kills S. aureus RN4220 lacking UgtP. 330,000 tested, 0.54% active. growth inhibition, % (test concentration not listed). S. aureus RN4220 ugtP deletion, OD600 growth, 16 h; some inactives read as strong as hits;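 active means z-score under -3 and OD600 up to 0.15 on both plates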;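 further: plate controls were untreated wells for no effect and antibiotic for full effect; wells of about 80 µL received 100 nL stock; the first replicate is given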
# Mtb hypoxia inh growth: second read-out of Mtb hypoxia inh, no call of its own (marks repeat the call); growth inhibition, %; measured here: M. tuberculosis growth (absorbance);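 0% = vehicle and 100% = reference antibiotic; read after six days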
# Starred values were filed as active, the others as inactive; ? = inconclusive; . = no result given. An unsorted share of the library. About 3.9% of those tested had a hit in this group.
Compound	Autofluor counter	RN4220 kill	Mtb hypoxia inh	Mtb hypoxia inh growth	BJeLR viability	PrP 5UTR inh	ugtP null kill
CCOc1nc(SCCOc2ccc(C)cc2)nc(N(C)C)n1	4529	1.1	8	14	.	-12	9
O=C(Nc1cc(F)ccc1F)N1CCN(c2ccnc3cc(Cl)ccc23)CC1	4152	-0.7	4	12	10	-19	4
Cc1nc(SCC(=O)OCc2ccccc2)c2c(=O)n(C)c(=O)n(C)c2n1	5741	-3.5	-2	6	5	2	0
COC(=O)CCCn1nc(NC(=O)c2ccco2)cc1C	3672	2.3	14	1	-4	0	4
O=C(CSc1nnc(-c2ccco2)n1Cc1ccccc1)c1ccc(F)cc1	10085	7.9	10	7	9	-30	-9
Cc1cccc(C(=O)NNC(=O)c2ccccc2)c1	2436	4.2	2	1	20	-40	1
CCN(CC)S(=O)(=O)c1cc(NS(=O)(=O)c2cc(Cl)ccc2Cl)ccc1C	7453	14	6	4	3	-11	-9
Cc1ccc(S(=O)(=O)NN/C(=N/S(=O)(=O)c2ccccc2)c2ccccc2)cc1	4513	1.7	-11	3	-10	-9	-5
O=C(O)c1cccc(-n2cnnn2)c1	2409	-2.2	.	.	.	-1	4
C=CCN1CCc2cccc3c2[C@H]1Cc1ccc(O)c(O)c1-3	3185	.	.	.	-9	-6	.
Cc1cc(C)nc(SCC(=O)Nc2ccccc2[N+](=O)[O-])n1	15698	7.0	4	8	1	-12	9
Cc1cc(NN=Cc2ccccc2O)nc(N2CCOCC2)n1	.	-2.7	-3	7	.	.	3
O=C(N/N=C/c1ccc(Cl)cc1Cl)c1n[nH]c2c1CCCC2	2336	.	.	.	31	-116	.
CCN1CCN(C(=O)N(Cc2ccc(Cl)cc2)S(=O)(=O)c2ccc(C)cc2)CC1	?	4.4	2	-2	-5	-10	4
O=C(Nc1cccc2ncccc12)C(c1ccccc1)c1ccccc1	4168	3.2	16	13	1	-13	6
CCOc1ccccc1Oc1coc2cc(OCC(=O)O)ccc2c1=O	2715	-0.8	3	7	2	-9	5
CCC1=NN(C(=O)c2ccccc2O)C(O)(c2ccccc2)C1 (stereo not given)	3845	.	.	.	14	2	.
Cc1ccc(NC(=O)c2cc(S(=O)(=O)N3CCCC3)c[nH]2)c(C)c1	4378	9.2	7	3	-4	-8	18
CCCCN(C(=O)c1ccc2c(c1)OCCO2)c1c(N)n(CC(C)C)c(=O)[nH]c1=O	5503	-0.3	1	0	1	-19	5
Nc1nc(Br)c2c(F)cccc2c1-c1ccc(F)cc1	22286*	-2.0	12	4	-4	-7	-3
Cc1noc(C)c1COc1cccc(C(=O)Nc2ccc(C#N)cc2)c1	7173	5.8	10	9	-9	35	0
Cc1cc(C)cc(N2C(=O)CCN(Cc3ccccc3)C2=O)c1	4408	1.3	17	11	0	-29	2
O=C(O)c1ccc(Cl)c(S(=O)(=O)N2CCCC2)c1	4924	0.5	0	0	3	-16	5
O=C1CS(=O)(=O)N(Cc2cccc(F)c2)c2ccc(Br)cc21	3804	34	11	11	.	-5	-14
CCSc1nnc(NC(=O)CSc2nccn2-c2cc(C)cc(C)c2)s1	.	10	.	.	-5	.	13
O=C(Nc1ccccc1)C1CC=CC2CCN(Cc3ccccc3)C(=O)C21 (stereo not given)	.	-1.7	5	14	.	.	0
CC(=O)Nc1ccc(NC(=O)CSc2nnnn2-c2ccc3c(c2)OCCO3)cc1	2400	3.4	5	9	1	-17	4
COc1ccccc1NC(=O)c1c(C)nc2ccccc2c1C(=O)O	4309	0.6	4	-4	-5	-23	3
CC1CC(C)CN(C(=O)COC(=O)c2ccc[nH]c2=O)C1 (stereo not given)	2235	-0.1	.	.	7	-2	1
COc1ccc(Cl)cc1N(CC(=O)Nc1ccccc1C(=O)N1CCCC1)S(C)(=O)=O	4356	3.7	6	2	-10	-12	5
CSC(=NC#N)N1CCN(C(=NC#N)SC)CC1	3726	5.5	-3	4	2	-11	11
COc1cc(N/C(N)=N/c2nc(C)cc(C)n2)c(OC)cc1Cl	2205	5.1	7	1	0	-42	10
Cc1ccc(OC(=O)C2CCN(C(=O)c3ccccc3C)CC2)c(Br)c1	6264	.	.	.	3	-19	.
Cn1c(-c2sc3cc(C(F)(F)F)cnc3c2-c2ccccn2)n[nH]c1=S	4307	4.5	9	7	5	-11	3
COc1cc(OC)c(/C=N/NC(N)=S)cc1Br	2517	.	.	.	-4	-8	.
C=CCNC(=O)CSc1ncc2c(n1)-c1c(csc1SC)CC2	.	5.1	13	8	-4	.	2
CCCCCC(=O)Nc1sc(C)c(C)c1C#N	2596	7.1	8	10	5	-6	-6
C=CCOc1c(Br)cc(CNc2ccc(NC(=O)C(C)C)cc2)cc1OCC	5367	5.2	.	.	2	-8	4
O=C1N(CN2CCC3(CC2)OCCO3)c2ccccc2C12OCCCO2	22108*	3.3	8	17	5	-17	-1
CCOc1ccc(N2C(=O)Nc3ccccc3C2(O)C(=O)NCc2ccco2)cc1 (stereo not given)	3960	-4.4	-2	5	2	-46	-1
O=C(Nc1nc(-c2ccccn2)cs1)Nc1ccc(F)cc1F	5964	.	.	.	4	7	.
C/C(=N/NC(=O)c1ccncc1)c1ccccc1	2970	.	.	.	-9	-19	.
CCC(=O)NC(=S)Nc1ccc(NC(=O)c2cc3ccccc3o2)c(OC)c1	3272	7.1	14	6	-3	-28	1
CCOC(=O)C1(Cc2cccc(OC)c2)CCN(Cc2cccc(OC)c2O)CC1	4168	2.9	-2	19	6	-20	6
CCOC(=O)CCC(=O)c1c(C)oc2ccc(OC)cc12	4322	-0.4	.	.	10	-30	-2
CC(C)(C)OC(=O)C[C@H]1C/C=C\C[C@@H](CC(=O)N(CCO)Cc2ccccc2)C(=O)N2CCC[C@H]2COC1=O	3689	2.3	-10	1	.	-10	3
CC(NC(=O)CCc1ccccc1)c1cc2c(cc1Cl)OCCO2 (stereo not given)	2083	1.2	.	.	-2	-18	0
CCOc1ccc2c(c1)s/c(=N\S(=O)(=O)c1ccc(OC)cc1)n2C(F)F	2851	.	.	.	6	-14	.
Cc1ccc(C2/C(=C(\O)c3c(C)nc4ccccn34)C(=O)C(=O)N2CCN(C)C)o1 (stereo not given)	5317	-1.2	-14	3	2	-13	-4
c1ccc(Cc2nn3c(COc4ccccc4)nnc3s2)cc1	24302*	3.4	-2	-10	5	0	1
CC(C)C(C(=O)Nc1sc2c(c1C#N)CCCCC2)N1C(=O)c2ccccc2C1=O (stereo not given)	4843	-3.3	.	.	5	-12	38
c1csc(Cc2nc(-c3ccc(-n4cccc4)cc3)no2)c1	4319	4.0	9	2	-2	-35	6
O=C(CN1C(=O)/C(=C/c2ccco2)SC1=S)NC1CCS(=O)(=O)C1 (stereo not given)	5505	2.9	0	-3	2	-13	-3
COc1ccc2c(c1)C(=O)OC2CC(=O)O (stereo not given)	8891	5.5	7	4	3	-2	4
CN(CCc1ccccn1)C(=S)Nc1ccc(Cl)c(Cl)c1	4665	2.3	3	12	4	-21	-5
CCN(CC)CC(=O)n1c2c(c3ccccc31)CCCC2	2890	5.6	11	1	-1	-13	13
O=C(OCc1cc(Cl)cc2c1OCOC2)c1cccnc1Cl	2911	2.4	11	7	.	-26	-1
COc1ccc(C=NNC(=O)CCC(=O)Nc2ccc(F)cc2)c(OC)c1	.	0.8	13	4	.	.	2
Cc1cccc(C#N)c1NC1=CC(=O)CC(C)(C)C1	3640	-2.0	11	1	-3	-19	0
Cc1c(Cl)cnc(NC(=O)COC(=O)C2CC2)c1Cl	8343	7.4	-1	-2	.	-20	-2

# Following part.
Compound	Autofluor counter	RN4220 kill	Mtb hypoxia inh	Mtb hypoxia inh growth	BJeLR viability	PrP 5UTR inh	ugtP null kill
O=c1[nH]nc(SCc2nc3ccccc3s2)n1C1CC1	4433	7.9	19	-1	-3	-58	6
Cc1cc(NC(=O)CSc2ncnc3c2cnn3-c2ccccc2)no1	3243	2.0	9	9	0	-16	6
COC(=O)CN1C(=S)N(c2ccc(F)cc2)C(=O)C1CC(=O)Nc1ccccc1 (stereo not given)	3127	1.6	-6	-4	9	-30	5
Cc1ccc(-c2cc(C(=O)O)c3ccccc3n2)s1	3623	4.7	-4	-1	5	-17	-3
COc1cccc(-c2cc(C(=O)N3C(C)CCCC3C)no2)c1 (stereo not given)	11123	1.7	1	11	2	-83	-10
O=[N+]([O-])c1ccc(O)c(/C=N/n2cnc3ccccc32)c1	10887	.	.	.	5	-15	.
C=CCOc1ccc(C(=O)O)cc1Cl	2806	1.3	4	2	-2	-13	-2
O=C(/C=C/c1ccccc1)NC(NC(=S)Nc1ccc(Cl)cc1Cl)C(Cl)(Cl)Cl (stereo not given)	2499	.	.	.	6	-17	.
O=C(Nc1ccc(C(=O)O)cc1)/C(=C/c1ccc([N+](=O)[O-])cc1)NC(=O)c1ccccc1	2103	0.1	-2	-2	0	4	1
CC(=NCCO)c1c(O)n(C2CCCCC2)c(=O)[nH]c1=O	3166	0.6	5	12	3	-9	-3
c1ccc(-c2noc(CSc3nnnn3-c3ccccc3)n2)cc1	5972	8.5	-1	1	0	-6	2
O=C(/C=C/c1ccccc1)NCCSCc1ccc(Cl)cc1	2491	0.6	0	-6	-1	-28	7
COc1ccc(Cl)cc1C(=O)NCCS(=O)(=O)N1CCN(c2ccccc2F)CC1	6249	-1.5	5	4	8	-14	13
COc1ccc(NC(=O)CCCN2C(=O)C3CC=CCC3C2=O)cc1 (stereo not given)	5446	-0.4	-1	-3	0	-3	-1
O=C(OCC(=O)N1CCCc2ccccc21)c1ccc(Cl)nc1	2223	-4.7	3	8	5	-14	2

# Three structures already listed, sorted by molar mass, highest first:
Compound	Autofluor counter	RN4220 kill	Mtb hypoxia inh	Mtb hypoxia inh growth	BJeLR viability	PrP 5UTR inh	ugtP null kill
c1ccc(-c2noc(CSc3nnnn3-c3ccccc3)n2)cc1	5972	8.5	-1	1	0	-6	2
CC(=NCCO)c1c(O)n(C2CCCCC2)c(=O)[nH]c1=O	3166	0.6	5	12	3	-9	-3
C=CCOc1ccc(C(=O)O)cc1Cl	2806	1.3	4	2	-2	-13	-2

# The results go on.
Compound	Autofluor counter	RN4220 kill	Mtb hypoxia inh	Mtb hypoxia inh growth	BJeLR viability	PrP 5UTR inh	ugtP null kill
Cc1ccc(NC(=O)CCC(=O)NNC(=O)c2ccccc2)c(C)c1	2618	6.3	11	12	3	-19	-6
CCOC(=O)CCSc1nc(-c2ccccc2)cc(C(F)(F)F)n1	4630	1.6	.	.	4	-10	72
COc1ccc2oc(C(=O)OCC(=O)Nc3ccccc3)c(C)c2c1	6523	5.7	4	0	-7	-8	3
CCCN(CC1CC1)C(=S)NC(=O)c1cc(Br)ccc1Cl	?	1.7	11	-1	.	-10	3
CCC(=O)NCCNC(=O)c1c(SC)nsc1SC	.	-12	6	5	-4	-20	-6
CC(C)CCn1c(CN2CCOCC2)nc2c1c(=O)n(C)c(=O)n2C	5511	-1.9	-9	0	8	-37	-8
CCOC(=O)c1sc(C)c2c1NC1(CCCCCC1)NC2=O	1991	5.2	.	.	-4	-3	-13
O=C(NNC(=O)c1sccc1-n1cccc1)c1ccc(Cl)cc1	2182	24	.	.	-2	3	0
COc1ccc(CNC(=O)c2cc(S(=O)(=O)N3CCCCC3)ccc2N2CCOCC2)cc1OC	2871	4.5	3	1	.	-17	0
COc1ccc(N2CCN(CCCNC(=S)Nc3c(C)cccc3C)CC2)cc1	5089	0.8	-3	-2	-13	-18	1
CCc1nnc(NC(=O)CSc2nnc(C3CCCCC3)n2-c2cccc(Cl)c2)s1	8537	4.5	17	15	6	-66	-2
COc1ccc(OCC(=O)NCc2ccc(Cl)cc2)cc1	3505	2.3	7	6	-1	-22	-3
CCOC(=O)c1cc(-c2ccccc2C)n(CC2CC(c3cccc([N+](=O)[O-])c3)=NO2)n1 (stereo not given)	4035	5.2	21	5	.	-18	14
CN1CCN(c2ccc(S(=O)(=O)C(F)(F)F)cc2[N+](=O)[O-])CC1	2101	5.0	10	15	-2	-9	9
CC(Nc1cccc([N+](=O)[O-])c1)C(=O)Nc1ccc(S(=O)(=O)N2CCCC2)cc1 (stereo not given)	4884	2.7	-5	1	.	-10	6

# High-throughput results deposited in PubChem by several laboratories.
